High-throughput results deposited in PubChem BioAssay by ICCB-Longwood Screening Facility, Harvard Medical School.
RVFV N-RNA FP: inhibitors of Rift Valley Fever Virus nucleocapsid-RNA interaction | P21700 | AID 651828 | 0.1% of 20,000 active | RVFV N-RNA binding, fluorescence polarization; active compounds read low | % bound, % (test concentration not listed);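 active = between 0 and 58% in either replicate with normal brightness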;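 note: 100 nL library stock added to about 12 µL; 100% = protein and probe without compound and 0% = probe alone; numbers are from one replicate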
Target sequence (P21700 whole entry, looked up): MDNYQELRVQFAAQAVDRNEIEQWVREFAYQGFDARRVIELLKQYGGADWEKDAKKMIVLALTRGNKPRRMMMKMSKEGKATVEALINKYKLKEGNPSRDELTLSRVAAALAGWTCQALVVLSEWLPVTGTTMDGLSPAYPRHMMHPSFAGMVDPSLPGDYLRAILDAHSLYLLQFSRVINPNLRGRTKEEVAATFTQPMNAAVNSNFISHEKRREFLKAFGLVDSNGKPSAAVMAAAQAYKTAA
* = called active by the depositor; & = joins results of further samples. A portion of the library, so the mix of outcomes need not match the whole.

The opening 24 entries, to show the layout:
SMILES	RVFV N-RNA FP
O=C(Nc1ccc(OC(F)F)cc1)NC1CCN(C(=O)OCc2ccccc2)CC1	100
O=C(NC1CCCCC1)C(=S)N1CCCC1	98
Oc1ccc2ccccc2c1	107
COC(=O)C(O)(CC(=O)Nc1ccc(C)c(F)c1)C(F)(F)F (stereo not given)	99
O=c1cccc2n1CC1CC2CN(C(=S)Nc2ccccc2)C1 (stereo not given)	92
CN(C)C(=S)Nc1ccccc1N1CCOCC1	93
CC(=O)SC(C)CC(=O)Nc1ccccc1 (stereo not given)	90
O=C1CC(c2ccco2)Sc2nc(-c3ccc(F)cc3)nn21 (stereo not given)	100
CCOc1cc(CN2CCN(c3cccc(C(F)(F)F)c3)CC2)ccc1OC	97
CN1CCN(c2ccccc2/C=N/NC(=O)c2cccnc2)CC1	96
O=C(O)c1ccccc1OCCOc1ccccc1C(=O)O	96
CCC(=O)c1ccccc1OCCCSc1ncccn1	95
CCCC(=O)N=c1sc2c(OC)ccc(OC)c2n1C	96
CCN(C(=O)c1ccc(OC)cc1)c1ccccc1OC	102
O=C(Oc1c(-c2ccccc2)c(=O)n2c3c(cccc13)CC2)c1ccco1	101
Cc1c(C(=O)NN)nn(-c2ccc(C(C)(C)C)cc2)c(=O)c1C#N	93
CN(C)/C=N/NC(=O)Cc1csc2nc(-c3ccccc3)nn12	98
Nc1nc2cc3c(cc2s1)OCO3	92
C=C1N[C@@H](Cc2ccc3[nH]cc(CCN(C)C)c3c2)CO1	97
O=C(Nc1ccccc1)C1(S(=O)(=O)c2ccccc2)CC1	93
O=C(Nc1nccs1)C(F)(F)F	101
N#CC(C#N)=Cc1ccc(F)cc1F	90
CC(=O)N=Nc1c(O)[nH]c2ccc(F)cc12	94
OCCNc1ccc(C(F)(F)F)cn1	97

Results, from the first entry:
SMILES	RVFV N-RNA FP
O=C(Nc1ccc(OC(F)F)cc1)NC1CCN(C(=O)OCc2ccccc2)CC1	100
O=C(NC1CCCCC1)C(=S)N1CCCC1	98
Oc1ccc2ccccc2c1	107
COC(=O)C(O)(CC(=O)Nc1ccc(C)c(F)c1)C(F)(F)F (stereo not given)	99
O=c1cccc2n1CC1CC2CN(C(=S)Nc2ccccc2)C1 (stereo not given)	92
CN(C)C(=S)Nc1ccccc1N1CCOCC1	93
CC(=O)SC(C)CC(=O)Nc1ccccc1 (stereo not given)	90
O=C1CC(c2ccco2)Sc2nc(-c3ccc(F)cc3)nn21 (stereo not given)	100
CCOc1cc(CN2CCN(c3cccc(C(F)(F)F)c3)CC2)ccc1OC	97
CN1CCN(c2ccccc2/C=N/NC(=O)c2cccnc2)CC1	96
O=C(O)c1ccccc1OCCOc1ccccc1C(=O)O	96
CCC(=O)c1ccccc1OCCCSc1ncccn1	95
CCCC(=O)N=c1sc2c(OC)ccc(OC)c2n1C	96
CCN(C(=O)c1ccc(OC)cc1)c1ccccc1OC	102
O=C(Oc1c(-c2ccccc2)c(=O)n2c3c(cccc13)CC2)c1ccco1	101
Cc1c(C(=O)NN)nn(-c2ccc(C(C)(C)C)cc2)c(=O)c1C#N	93
CN(C)/C=N/NC(=O)Cc1csc2nc(-c3ccccc3)nn12	98
Nc1nc2cc3c(cc2s1)OCO3	92
C=C1N[C@@H](Cc2ccc3[nH]cc(CCN(C)C)c3c2)CO1	97
O=C(Nc1ccccc1)C1(S(=O)(=O)c2ccccc2)CC1	93
O=C(Nc1nccs1)C(F)(F)F	101
N#CC(C#N)=Cc1ccc(F)cc1F	90
CC(=O)N=Nc1c(O)[nH]c2ccc(F)cc12	94
OCCNc1ccc(C(F)(F)F)cn1	97
Cc1cc2cc(CNC(=O)c3cc4ccccc4o3)ccc2[nH]1	94

Further results.
SMILES	RVFV N-RNA FP
COC(=O)c1ccc2ccn(CC(N)=O)c2c1	110
O=C(Nc1ccccc1Cl)c1ccc2c(c1)C(=O)N(Cc1ccco1)C2=O	88
C[C@H]1[C@@H](OC(=O)CCC(=O)O)O[C@@H]2OC3(C)CC[C@H]4[C@H](C)CC[C@@H]1[C@@]24OO3	99&94
CC(C)C(NC(=O)COc1ccc(Br)cc1)C(=O)O (stereo not given)	95
Cn1c(COc2cccc3cccnc23)nnc1SCC(=O)O	104
COc1ccnc(CS(=O)c2nc3ccc(OC(F)F)cc3[nH]2)c1OC (stereo not given)	92
CC(=O)O/N=C(\N)c1ccc(-c2csnn2)cc1	94
CCc1ccccc1NC(=O)CCC(=O)O	106
CC(C)CN(CC(C)C)S(=O)(=O)c1ccc(C(=O)O)cc1	95
Cc1ccc2c(c1)sc1nc(-c3cc4ccccc4oc3=O)cn12	94
COc1cccc(N2CC(NC(=O)NC(C)(CO)CO)CC2=O)c1 (stereo not given)	91
CCC(=O)Nc1sc(C)c(CC)c1C(=O)NC1CC1	96
Cc1cc(=O)n2nc(C)sc2n1	99
CN1CCc2cc(O)cc3c2[C@H]1Cc1ccc(O)c(O)c1-3	95
COc1cccc2cc(-c3cc(=O)oc4cc(C)c(OC(=O)N(C)C)cc34)oc12	94
Cc1cnc2c(c1SCC(=O)NC1CCCC1)c(=O)n(C)c(=O)n2C	96
O=C(CCn1c(=O)oc2ccccc21)N1CCc2ccccc21	100
NC(=O)c1oc2ccccc2c1NC(=O)C1COc2ccccc2O1 (stereo not given)	93
O=C(CN(c1ccccc1)S(=O)(=O)c1ccccc1)N1CCCC1	100
C=C1C[C@@]23CC[C@H]4[C@@](C)(CCC[C@@]4(C)C(=O)O)[C@@H]2CC[C@]1(O)C3	94
O=C1CCc2cc(S(=O)(=O)N3CCCC3)cc3c2N1CCC3	88
C=CCN1C(=O)/C(=C/c2ccco2)S/C1=N/c1nccs1	89
CCC(=O)Nc1cc(OC)c(OC)c(OC)c1	97
CN1CCN(c2oc(COc3ccccc3F)nc2C#N)CC1	98
Nc1ccccc1C(=O)CSc1ccccn1	93

Additional structures:
SMILES	RVFV N-RNA FP
Cc1c2c(=O)n(-c3ccccc3)[nH]c2cc(=O)n1CC1CCCO1 (stereo not given)	97
CCOC(=O)C1CCCN(C(=O)S(=O)(=O)c2ccc(-c3csc(C)n3)s2)C1 (stereo not given)	97
CC(=O)NCC(c1cccs1)N1CCc2ccccc21 (stereo not given)	91
CCOC(=O)C1(c2ccc(OC)cc2)CCOCC1	100
CCN1CCN(C(=O)c2cc3cc(OC)ccc3oc2=O)CC1	95
O=C(OCn1nnc2ccccc2c1=O)c1ccc(S(=O)(=O)N2CCOCC2)cc1	91
C=CCOC(=O)C1=C(C)NC(SCC(=O)OCC)=C(C#N)C1c1cccs1 (stereo not given)	98
Cc1nc(/N=C(\NC(=O)c2ccccc2)Nc2ccccc2)[nH]c(=O)c1C	108
CSCC[C@H](NC(=O)[C@H](Cc1c[nH]c2ccccc12)NC(=O)[C@H](C)NC(=O)OC(C)(C)C)C(=O)N[C@@H](CC(=O)O)C(=O)N[C@@H](Cc1ccccc1)C(N)=O	104
COc1ccc(C2CC(=O)c3cnc(NCCN4CCOCC4)nc3C2)cc1 (stereo not given)	90
CN1C=NC2C1C(=O)N(CCn1c(=O)c3c(ncn3C)n(C)c1=O)C(=O)N2C (stereo not given)	99
CCOc1cc(C(F)(F)F)c(C(=O)N(C)Cc2c(OC)cccc2OC)cn1	98
N#Cc1ccc(C=Nc2cccc3c(=O)[nH][nH]c(=O)c23)cc1	88
C=CCN(c1ccc(C(=O)Nc2ccc(OC)cc2OC)cc1)S(C)(=O)=O	112
COc1nc(SC)nc2sc3c(c12)CCC3	92
OCC1CCCN1Cc1ccccc1C(F)(F)F (stereo not given)	105
OC(CN1CCN(c2ccc(C(F)(F)F)cn2)CC1)c1ccc(F)cc1 (stereo not given)	97
c1ccc2c(c1)CCC/C2=N\NC1=NCCN1	84
O=C(NCc1cccs1)c1cnc2sccn2c1=O	88
O=C(Cc1ccc(Cl)c(Cl)c1)N1CCCCC1CN1CCCC1 (stereo not given)	94
OCc1nnc2c3ccccc3c(-c3ccccc3)nn12	97
Cn1c(=O)[nH]c(=S)c2nc(-c3ccc(F)cc3)cnc21	94
CC(C)NC(=O)CCCc1ccccc1	96
CNC(=O)c1cc(S(=O)(=O)N2CC(C)OC(C)C2)ccc1N1CCOCC1 (stereo not given)	94
CCn1c(SCC(=O)NN2CC(=O)N(c3ccc(F)cc3)CC2=O)nnc1-c1cccs1	91

Additional results follow:
SMILES	RVFV N-RNA FP
CC(C)CNS(=O)(=O)c1ccc(CCC(=O)N2CCN(c3ccccc3)CC2)cc1	106
CCOc1ccc(-n2c(Cc3cc(=O)[nH]c(=O)[nH]3)nnc2SCC(=O)N2CCCC2)cc1	91
CCOC(=O)c1ccc(NC(=O)Cn2cnc3c(oc4ccccc43)c2=O)cc1	101
CC1OC(C)C2Cc3ccccc3C2O1 (stereo not given)	103
O=S(=O)(Cc1noc(-c2ccccc2Cl)n1)Cc1ccco1	96
Cc1cc(C)c2c(CC(=O)N3CCCc4ccccc43)coc2c1	101
COc1ccccc1OCC#CCN1CCCc2ccccc21	94
COc1ccc(C2(CNC(C)=O)CCOCC2)cc1OC	89
NC(=O)COc1coc(CN2CCN(c3ccccc3)CC2)cc1=O	100
N#Cc1cc2c([nH]c1=S)CCCC2	98
CCOC(=O)C1CCCN(C(=O)Cc2ccc(OC)c(OC)c2)C1 (stereo not given)	97
COc1ccc(O)c(/C=N/NC(=O)c2ccn(Cc3ccc(Cl)cc3)n2)c1	93
O=C1CCCc2nc3nc4ccccc4n3cc21	110
CC1[N+](=O)C(c2ccccc2)=C(c2ccccc2)N([O-])C1(C)C (stereo not given)	95
O=C(NCC(O)c1ccccc1)Nc1ccc2c(c1)CCO2 (stereo not given)	98
O=c1c2nnn(-c3ccc(Cl)cc3)c2ncn1CCN1CCCCC1	95
COC(=O)/C(=C/c1ccco1)NC(=O)c1ccccc1	95
Cc1cc(SCC(=O)NN2CCOCC2)nc(C(C)C)n1	92
O=C(/C=C/c1ccccc1)NCC1COc2ccccc2O1 (stereo not given)	114
CC(C)(C)NC(=O)CSc1nc(C(F)(F)F)cc(=O)[nH]1	94
O=C(/C=C/c1ccc(Cl)cc1)NCc1ccccn1	97
NC1=CC(=O)c2ccccc2C1=O	91
CCN(CC)CCCOc1c(C)cc(Cl)cc1Cl	89
COc1cccc2cc(C(=O)N3CCN=C3c3ccccc3)c(=O)oc12	99
CCCc1cc(N2CCCCC2)n2c(nc3ccccc32)c1C#N	95

New compounds follow
SMILES	RVFV N-RNA FP
CCOC(=O)c1sc(NC(=O)C2C3C=CC(C3)C2C(=O)O)nc1C (stereo not given)	95
O=C(N1CCCCCC1)N1CCN(C(=O)N2CCCCCC2)CC1	94
COc1ccccc1N1C(=O)CC(SCC(=O)Nc2ccccc2)C1=O (stereo not given)	91
CN(C)/C=N/N=C/c1cc(Cl)cc(Cl)c1O	98
CC/C(Cc1ccccc1)=N/NS(C)(=O)=O	95
O=c1[nH]c(=O)c2[nH]cnc2[nH]1	91
COc1ccc(-c2[nH]c(SC)nc(=S)c2C#N)cc1	98
CNC(=O)CSc1nc2ccccc2c(=O)n1C	93
O=C(CCS(=O)(=O)c1ccccc1)Nc1cccc(-c2nc3ccccc3o2)c1	102
O=C(CS(=O)(=O)c1ccccc1)Nc1ccccc1O	96
COc1cccc2cc(C(=O)OCCN3CCOCC3)c(=O)oc12	100
CC1CN(C(=S)NC(=O)c2ccc(Cl)cc2)CC(C)O1 (stereo not given)	86
COc1ccc(C2CC(=O)N(CC(=O)N3CCCCC3)c3ccccc3S2(=O)=O)cc1OC (stereo not given)	92
O=C(O)/C=C\C(=O)Nc1ccc2c(c1)OCCO2	93
OC(CCN1CCCC1)(c1ccccc1)C1CCCCC1 (stereo not given)	97
O=C(Nc1ccc2c(c1)CCN(Cc1ncn[nH]1)C2)c1ccccc1-c1ccc(C(F)(F)F)cc1	93
CN(C)S(=O)(=O)Nc1ccc2c(c1)oc1ccccc12	92
COc1ccc(S(=O)(=O)NCC(c2cccnc2)N2CCN(c3ccc(F)cc3)CC2)cc1C (stereo not given)	96
Cc1ccc(Oc2ccsc2C=C(C#N)C#N)cc1	93
NCCCP(=O)(O)O	101
COc1ccc(NC(C)=O)cc1NC(=O)c1cc2cccnc2n(C)c1=O	95
Fc1ccc2[nH]c(CN3CCN(c4ccccn4)CC3)cc2c1	92
O=C(O)c1ccc(/C=c2/sc3n(c2=O)CCN=3)cc1	102
Cc1cccc(NS(=O)(=O)c2cc(C(=O)NCc3ccco3)ccc2C)c1	96
O=C(CCC1CCCCC1)NC1CCCC1	95

Shown with bars between the fields: entries from further up.
mol | RVFV N-RNA FP
CCOC(=O)c1sc(NC(=O)C2C3C=CC(C3)C2C(=O)O)nc1C (stereo not given) | 95
O=C(N1CCCCCC1)N1CCN(C(=O)N2CCCCCC2)CC1 | 94

Further records:
SMILES	RVFV N-RNA FP
O=C(Cc1ccccc1)NCC(=O)N1CCN(C(=O)c2ccco2)CC1	100
CC1CC(=O)Nc2ccccc2N1C(=O)c1cccs1 (stereo not given)	96
CC(C)c1ccc(NC2C=CS(=O)(=O)C2)cc1 (stereo not given)	94
Cc1ccnn2cc3c(=O)n(C)c(=O)n(C)c3c12	81
O=C(CSCc1ccccc1Cl)Nc1c[nH]c(=O)[nH]c1=O	97
COc1cccc(-c2noc(Cc3ccccc3)n2)c1	88
O=C1C(SCCO)=C(SCCO)C(=O)c2ccccc21	96
CC(=O)Oc1ccc(S(=NS(=O)(=O)c2ccccc2)c2ccc(OC(C)=O)cc2)cc1	94
COc1ccc(N2CCN(C(=O)NC(=O)c3ccccc3)CC2)cc1	108
CCOCC(=O)Nc1c(C(=O)Nc2ccc(F)c(F)c2)oc2ccccc12	101
COC(=O)C(CO)NC(=O)c1ccccc1 (stereo not given)	96
CCN(CC)C(=O)Nc1cnc2ccccc2c1	94
S=c1[nH]nc(COc2ccccc2)o1	92
CC(=O)N(Cc1cccs1)C1CCOC(C)(C)C1 (stereo not given)	98
COc1ccccc1C(=O)NC(C(C)C)C(C)C	100
